# High-throughput results (PubChem)
# TRPV1 potentiator: HTS Assay for Compounds that Act as Potentiators of the Vanilloid Receptor 1. Transient receptor potential cation channel subfamily V member 1 (Homo sapiens), Q8NER1. TRPV1-expressing cells, Fluo-8 calcium influx, capsaicin EC20 potentiation; host cell line not named in the record; control for the full effect not named in the record. potentiation, % at 8.33 µM. 320,000 compounds, 0.02% hits. AID 540277, 2011; active means potentiation above 80%; inconclusive means 30% to 80%; inactive means below 30%; note: 0% is about no effect
# Target sequence (Q8NER1 whole entry, looked up): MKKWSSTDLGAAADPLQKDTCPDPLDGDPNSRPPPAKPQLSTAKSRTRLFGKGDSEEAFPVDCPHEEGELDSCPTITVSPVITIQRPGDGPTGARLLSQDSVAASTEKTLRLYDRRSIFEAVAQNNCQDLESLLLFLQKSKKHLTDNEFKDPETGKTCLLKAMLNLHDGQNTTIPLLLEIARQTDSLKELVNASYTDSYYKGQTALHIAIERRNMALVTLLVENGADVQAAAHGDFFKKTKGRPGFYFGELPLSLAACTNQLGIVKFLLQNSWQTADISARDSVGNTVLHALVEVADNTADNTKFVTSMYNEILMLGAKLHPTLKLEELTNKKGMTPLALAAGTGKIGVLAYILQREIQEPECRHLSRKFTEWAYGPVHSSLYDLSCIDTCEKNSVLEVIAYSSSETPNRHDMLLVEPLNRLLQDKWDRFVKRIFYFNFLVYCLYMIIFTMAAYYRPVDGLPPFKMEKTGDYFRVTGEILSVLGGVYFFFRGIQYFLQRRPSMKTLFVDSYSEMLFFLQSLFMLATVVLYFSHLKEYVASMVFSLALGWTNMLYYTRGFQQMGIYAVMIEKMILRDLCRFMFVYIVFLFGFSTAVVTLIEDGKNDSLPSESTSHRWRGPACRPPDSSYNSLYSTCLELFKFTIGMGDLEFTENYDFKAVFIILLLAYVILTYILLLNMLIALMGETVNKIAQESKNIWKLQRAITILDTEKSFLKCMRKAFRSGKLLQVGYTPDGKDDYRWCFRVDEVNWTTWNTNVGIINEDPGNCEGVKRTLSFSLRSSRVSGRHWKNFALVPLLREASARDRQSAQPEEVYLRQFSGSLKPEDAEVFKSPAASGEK
#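 TRPV1-expressing cells were cultured overnight at 35.5C and loaded with Fluo-8 calcium dye for 40 to 90 min at room temperature. After a 10 s baseline, compound was added and calcium influx was read kinetically for 3 min (ex 480/em 520 nm).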
# Sfp inh: qHTS Assay for Inhibitors of Bacillus subtilis Sfp phosphopantetheinyl transferase (PPTase); 4'-phosphopantetheinyl transferase ffp (Bacillus subtilis), Q9F4F7; 310,000 compounds, 3.5% hits; Potency, µM, for the others: max response, negative = inhibition, actives largely listed as inhibitors; Biochemical Sfp PPTase activity, qHTS; active = well fitted inhibition curve with a large enough effect; inconclusive = small, poorly fitted or top-dose-only effect, or another doubt; inactive = no such curve, though single readings can be large or run the other way;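 note: the enzyme is Sfp with the accession as filed and its product quenches rhodamine fluorescence; potency is the fitted concentration of half-maximal effect; 0% = enzyme reaction without inhibitor and -100% = no enzyme wells; top concentration of the series not given in the record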
#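 Compounds were incubated with enzyme (final 15 nM) for 15 min at room temperature before substrate addition started the reaction. Fluorescence at 525 nm excitation, 598 nm emission was recorded immediately and after 30 minutes.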
# gsp ag: qHTS for Agonist of gsp, the Etiologic Mutation Responsible for Fibrous Dysplasia/McCune-Albright Syndrome: qHTS | gsp mutant cells, cAMP HTRF, 30 min; control for the full effect not named in the record | Potency, µM (highest dose often 76.9 µM), inactives show top-dose activation (cAMP increase), actives largely listed as activators | 340,000 compounds, 0.13% hits; active = well fitted activation curve with a large enough effect; inconclusive = small, poorly fitted or top-dose-only effect, or another doubt; inactive = no such curve, though single readings can be large or run the other way; cell line not stated here;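 note: phosphodiesterase inhibitor Ro 20-1724 added with compounds to block cAMP breakdown; potency is the fitted concentration of half-maximal effect; nearly all actives have a fitted effect of over 60% in size; about a fifth of the inactives were tested at one dose only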
#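 Cells in DMEM/10% FBS with G418 were pretreated with compounds in DMSO plus […] (300 uM stock) for 30 min at 37C. cAMP was measured by HTRF (cAMP-d2 plus anti-cAMP antibody-K) after 30 min at room temperature.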
# CtBP-E1A inh: qHTS Assay for Inhibitors of the CtBP/E1A Interaction. AlphaScreen GST-E1A/His-CtBP binding, 1536-well; hits give low values; control for the full effect not named in the record. activity change, % (test concentration not listed). 340,000 compounds, 0.49% hits. AID 651724, 2012; in the data active means activity change below about -65%; inconclusive means about -30% to -65%; inactive means above about -30%; note: % is set by controls: 0 for no effect and ±100 for the full control effect
#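 GST-E1A and His-tagged CtBP (125 nM each as 5X stock) were preincubated with pin-transferred compound for 2 h at 37 °C in the dark, then glutathione donor and nickel acceptor beads were added for 1 h before AlphaScreen reading.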
# Menin-MLL FL inh: qHTS Assay for Inhibitors Targeting the Menin-MLL Interaction in MLL Related Leukemias: Competition With Fluorescein Labeled MLL-derived Peptide. FP activity change, % at 61.4 µM. AID 1766, 2009. Fluorescence polarization, fluorescein-MLL peptide displacement from menin. 290,000 tested, under 10 active; inconclusive = falling polarisation curve, or a change in total fluorescence; inactive = total fluorescence flat and polarisation flat or rising; no compound was filed as active; the % refers to the polarisation; negative = inhibition;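 note: % of control where 0% means no effect; inhibitors lower the polarisation; unlabelled MLL peptide was the positive control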
# ClpP mod: qHTS Assay for Activators of ClpP; 340,000 compounds, 1.9% hits; purified B. subtilis ClpP, FRET peptide cleavage, 20 min; ATP-dependent Clp protease proteolytic subunit (Bacillus subtilis (strain 168)), P80244; Potency, µM (top dose mostly 57.5 µM), for inactives: at the top dose activity change, negative = active; active = well fitted falling curve with a large enough effect; inconclusive = small, poorly fitted or top-dose-only effect; inactive = no such curve, though single readings can be large or run the other way; note: potency is the fitted concentration of half-maximal effect; the source files actives as falling curves though it sought activators and does not explain the sign; nearly all actives have a fitted effect of over 65% in size; many hits overshoot -100%
# Target sequence (P80244 whole entry, looked up): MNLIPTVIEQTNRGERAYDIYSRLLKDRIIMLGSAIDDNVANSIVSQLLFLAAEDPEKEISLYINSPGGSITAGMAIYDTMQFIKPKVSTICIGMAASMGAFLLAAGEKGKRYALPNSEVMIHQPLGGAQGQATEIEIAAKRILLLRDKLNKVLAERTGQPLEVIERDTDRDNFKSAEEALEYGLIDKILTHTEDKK
#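 Buffer: 100 mM Tris/HCl pH8, 100 mM KCl, 0.05% low protease BSA, 2.5% glycerol, 0.01% Tween-20. ClpP 10 microg/mL final; 20 min RT; delta FRET normalized to ADEP and DMSO controls.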
# gsp antagonist: qHTS for Antagonists of gsp, the Etiologic Mutation Responsible for Fibrous Dysplasia/McCune-Albright Syndrome: qHTS; 340,000 compounds, 0.4% hits; AID 624288, 2012; Potency, µM (top dose mostly 76.9 µM), without a hit: at the top dose activity change, negative = inhibition, most hits filed as inhibitors; gsp-mutant cells, cAMP HTRF, 30 min; control for the full effect not named in the record; active = falling curve of any shape with a large fitted effect; inconclusive = falling curve, mostly with a smaller effect; inactive = flat or rising curve; cell line not stated here;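 note: intracellular cAMP measured with PDE inhibitor Ro 20-1724 present during compound exposure; potency is the fitted concentration of half-maximal effect; % is set by controls: 0 for no effect and ±100 for the full control effect; nearly all actives have a fitted effect of over 65% in size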
#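 HTRF cAMP measurement after 30 min RT detection following 30 min, 37C compound treatment alongside […] (added as 300 uM solution) in G418-selected cells seeded at 2000/well and grown 16–24 h.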
# An asterisk follows results filed as active; ? = inconclusive; . = no result given; & = joins results of further samples; [ ] = another dose, or the depositor's remark.
SMILES,TRPV1 potentiator,Sfp inh,gsp ag,CtBP-E1A inh,Menin-MLL FL inh,ClpP mod,gsp antagonist
CCCCOc1ccc(S(=O)(=O)Nc2cccnc2)cc1,-15,11%,3%,10,3.6,-1.1%,-1%
COCCN(C(=O)c1ccc(COc2ccccc2)o1)c1c(N)n(CC(C)C)c(=O)[nH]c1=O,6,.,6%,1,.,-0.1%,-4%
CCCCOc1ccccc1C(=O)N(Cc1ccco1)C1CCS(=O)(=O)C1 (configuration not stated),-4,15%,-22%,.,-0.1,-1.1%,0%
Cc1ccccc1C(=NC(=O)c1ccccc1)c1ccccc1,3,-7%,-2%,1,5.4,0.2%,-3%
CC(=O)Nc1ccc2c3c(cccc13)C(=O)N(c1ccccc1)C2=O,-1,8%,35µM*,9,-3.5,.,-8%
Cc1ccc(OCc2nnc(SCC(=O)C(C)(C)C)n2Cc2ccco2)cc1,2,2%,6%,-7,-2.3,-4.8%,-4%
Cc1ccc(NS(=O)(=O)c2ccc(OCC(=O)N3CCOCC3)cc2)cc1,-1,?,?,6,-5.1,-3.6%,2%
Nc1ccc(NC(=O)c2ccccc2)c2c1C(=O)c1ccccc1C2=O,0,-8%,?,-6,5.0,-0.6%,5%
C[C@@H](C(=O)N[C@H](C(=O)O)c1ccccc1)n1nnc2ccccc2c1=O,5,5%,4%,.,-1.7,1.8%,4%
Cc1ccccc1Cn1c(C)nc2ccc([N+](=O)[O-])cc2c1=O,23,4%,-32%[inhibitor],-7,1.4,.,-12%
CCOc1cccc(=O)c2c(C)n(CC3CCCO3)c(C)c12 (configuration not stated),11,-10%,-1%,-6,?,-0.3%,-4%
CCn1c(CNC(=O)C23CC4CC(CC(C4)C2)C3)nnc1SC,2,14%,7%[15.4 µM],-6,0.3,?,5%
CC(=O)c1ccc(S(=O)(=O)Nc2ccc(-n3c(C)nc4ccccc4c3=O)cc2)cc1,-13,.,-1%,5,.,0.9%,-26%
COc1ccc(C(=O)NCCc2nnc(SCC(=O)Nc3ccccc3F)n2C)cc1,1,6%,-8%[15.4 µM],9,2.9,.,10%
CCN1CCN(CC(O)COc2ccc3c(C)cc(=O)oc3c2)CC1 (configuration not stated),7,19%,4%[15.4 µM],-2,-0.2,.,-32%
Cc1ccc(C)n1-c1ccc(N2CCOCC2)cc1,13,-53%,-1%,-9,2.9,-2.2%,1%
CCOc1ccccc1C(=O)N1CCN(c2ccc(C(F)(F)F)cn2)CC1,3,12%,4%[15.4 µM],3,-1.4,.,-20%
N#Cc1ccccc1NC(=O)CSc1nnc(-c2ccccc2O)n1-c1ccccc1,-7,21%,16%,-11,1.9,-1.0%,-4%
CCn1nc(C)c(C2C(C#N)=C(N)OC3=C2C(=O)CCC3)c1C (configuration not stated),1,-8%,5%[15.4 µM],0,5.3,-0.6%,17%
CC1CN(CCCCOc2cccc(Oc3ccccc3)c2)CC(C)O1 (configuration not stated),-10,?,8%[15.4 µM],16,0.0,-1.5%,4%

# Results in TRPV1 potentiator, for some of the entries so far:
structure | TRPV1 potentiator
CCOc1ccccc1C(=O)N1CCN(c2ccc(C(F)(F)F)cn2)CC1 | 3
N#Cc1ccccc1NC(=O)CSc1nnc(-c2ccccc2O)n1-c1ccccc1 | -7
CCn1nc(C)c(C2C(C#N)=C(N)OC3=C2C(=O)CCC3)c1C (configuration not stated) | 1

# (continued)
SMILES,TRPV1 potentiator,Sfp inh,gsp ag,CtBP-E1A inh,Menin-MLL FL inh,ClpP mod,gsp antagonist
O=C(O/N=C1\CCS(=O)(=O)c2sccc21)c1c(F)cccc1F,?,0%,8%[15.4 µM],25,-0.9,.,.
C1=C2C[N+]3(CCCC3)CC2Cc2ccc3ccccc3c21 (configuration not stated),-2,8%,-25%,4,2.8,-6.9%,6%
O=C(Cn1c(=O)sc2ccccc21)Nc1ccc2c(c1)OCCO2,-9,12%,16%,-1,1.4,-0.4%,-8%
CC(C)(Oc1ccc(Cl)cc1)C(=O)NCC(c1ccco1)N1CCCCC1 (configuration not stated),-9,.,5%,-2,.,-1.9%,-10%
CC(C)NC(=O)c1ccccc1NC(=O)Cc1ccc(Cl)cc1,0,20%,-40%[inhibitor],-12,-0.6,-16%,-2%
N#Cc1c(N)nc2c(c1-c1ccc3c(c1)OCO3)CCCCCC2,-18,19%,10%,-1,-1.1,?,-1%
C[C@@H](CN=[N+]=[N-])CN1CC[C@H](O)CCC1=O,2,6%,5%,1,-3.6,0.2%&1.7%,5%
O=C(c1csc2ccccc12)n1cccn1,-7,-5%,?,9,0.7,-7.1%,1%
CCS(=O)(=O)c1ccc2c(c1)N(S(=O)(=O)c1ccc(Cl)cc1)CC(C(=O)O)O2 (configuration not stated),0,6%,-1%[15.4 µM],-1,-0.6,.,19%
CCCN1C(=O)C(=O)c2cc(C)ccc21,.,.,-3%,3,.,-4.7%,12%
NC(=O)Cc1ccc(Nc2nnc(-c3ccccc3)c3ccccc23)cc1,-4,?,?,1,9.5,.,-16%
S=C1NCCN1CC1CCN(CCCC2CCCC2)CC1,.,.,.,1,.,1.7%,8%
O=C(O)c1cc(-n2nnnc2SCc2ccccc2F)ccc1Cl,6,10%,?,-3,-0.7,1.2%,12%
CCN(CC(=O)NC1CCS(=O)(=O)C1)c1nc(-c2cccnc2)nc2ccccc12 (configuration not stated),-2,20%,-12%,-1,4.8,-9.5%,11%
CCc1ccc2c(c1)cc(CN(C(=S)Nc1ccc(Cl)cc1)C1CC1)c1nnnn12,7,-9%,-15%,-29,0.4,-1.4%,29%
CSc1nc2sc3c(c2c2nncn12)CCC3,-4,7%,3%,?,4.0,-0.5%,-4%
COc1ccc(-c2ccc(NS(=O)(=O)c3cc([N+](=O)[O-])ccc3C)cc2)nn1,?,0%,26%,-11,.,.,-22%
Cc1cc(F)c(F)c(C(=O)NC2CC2)c1Cl,3,6%,0%,7,4.3,-2.1%,0%
COc1ccc(NC(=O)CN(C)C(=O)c2oc3ccccc3c2C)cc1,17,15%,7%,.,0.7,-0.2%,2%
Cc1cccc(N2CCN(C(=O)c3ccc(NS(=O)(=O)c4ccc5[nH]c(=O)[nH]c5c4)cc3)CC2)c1C,4,-11%,-2%,-16,-3.4,-1.3%,6%

# Records above shown as hits in gsp ag.
SMILES | Sfp inh | gsp ag | CtBP-E1A inh | Menin-MLL FL inh
CC(=O)Nc1ccc2c3c(cccc13)C(=O)N(c1ccccc1)C2=O | 8% | 35µM* | 9 | -3.5

# Back to the main list, repeating the 2 entries before the break.
SMILES,TRPV1 potentiator,Sfp inh,gsp ag,CtBP-E1A inh,Menin-MLL FL inh,ClpP mod,gsp antagonist
COc1ccc(NC(=O)CN(C)C(=O)c2oc3ccccc3c2C)cc1,17,15%,7%,.,0.7,-0.2%,2%
Cc1cccc(N2CCN(C(=O)c3ccc(NS(=O)(=O)c4ccc5[nH]c(=O)[nH]c5c4)cc3)CC2)c1C,4,-11%,-2%,-16,-3.4,-1.3%,6%
C/C(Cl)=C\Cn1c(Nc2ccc(C)cc2)nc2c1c(=O)n(C)c(=O)n2C,4,10%,-18%,-8,-1.7,-1.1%,?
COc1ccc(CN(C)S(=O)(=O)c2nnc(NC(=O)c3ccccc3)s2)cc1OC,5,15%,?,7,-3.0,.,-10%
Cc1ccn2cc(C(=O)NCc3ccco3)nc2c1,-9,-10%,9%[15.4 µM],5,0.2,-3.4%,-8%
Cc1nc2ccccc2nc(C)c1=NOCC(=O)N(c1ccccc1)C(C)C,-17,9%,-36%[inhibitor],11,1.9,.,-3%
O=C1NCCCC1C(=O)N/N=C/c1cccc(O)c1 (configuration not stated),-2,20%,1%,.,0.5,-1.6%,1%
Cn1c(=O)c2c(ncn2Cc2ccc(Cl)cc2)n(C)c1=O,-12,1%,?,2,-2.9,1.3%,23%
Cn1nc(-c2ccc(Cl)cc2)c2cc(C(=O)NCc3ccco3)sc21,-3,10%,-29%,?,-1.0,4.8%&4.6%,-17%
COC(=O)C1=CO[C@@H](O)C2C(CO)=CCC12 (some centres not stated),1,.,.,2,.,-3.9%,9%
CCNc1ccc(C(=O)OCC(=O)NCc2ccccc2Cl)cc1[N+](=O)[O-],-13,-7%,7%[15.4 µM],-5,2.7,-1.5%,5%
Cn1cnc(C(=O)N2CCc3ccccc3C2)c1C(=O)N1CCc2ccccc2C1,.,.,-29%,0,.,1.0%,7%
COC(=O)CNC(=O)COC(=O)c1cc(SC)ccc1Cl,3,24%,?,.,1.3,-4.3%,4%
Cc1ccc(Cl)cc1NC(=O)CCC(=O)Nc1cc(Cl)ccc1C,8,-7%,10%,2,3.8,3.3%,14%
O=c1c2ccccc2nnn1CSc1ccccc1,-6,2%,-1%[15.4 µM],0,1.2,153%,12%
COC(=O)N/N=C/c1cc(Cl)c(OCc2ccccc2F)c(OC)c1,24,1%,2%[15.4 µM],0,1.8,.,?

# Record cards, from the list above. Values in the order: TRPV1 potentiator	Sfp inh	gsp ag	CtBP-E1A inh	Menin-MLL FL inh	ClpP mod	gsp antagonist
# C/C(Cl)=C\Cn1c(Nc2ccc(C)cc2)nc2c1c(=O)n(C)c(=O)n2C is entered as 4	10%	-18%	-8	-1.7	-1.1%	?
# CCNc1ccc(C(=O)OCC(=O)NCc2ccccc2Cl)cc1[N+](=O)[O-] is entered as -13	-7%	7%[15.4 µM]	-5	2.7	-1.5%	5%
# Cc1ccn2cc(C(=O)NCc3ccco3)nc2c1 is entered as -9	-10%	9%[15.4 µM]	5	0.2	-3.4%	-8%
# Cc1nc2ccccc2nc(C)c1=NOCC(=O)N(c1ccccc1)C(C)C is entered as -17	9%	-36%[inhibitor]	11	1.9	.	-3%
# Cn1nc(-c2ccc(Cl)cc2)c2cc(C(=O)NCc3ccco3)sc21 is entered as -3	10%	-29%	?	-1.0	4.8%&4.6%	-17%

# Hits appear at their usual frequency, and some 5.3% of all compounds hit somewhere here.
